# Screens from PubChem.
# Mtb hypoxia inh – PubChem AID 1159583 | M. tuberculosis hypoxia-regulated fluorescent reporter, fluorescence | fluorescence inhibition, % (test concentration not listed) | actives 0.1% (n = 300,000);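 active = 35 to 45% if threefold the growth effect, above 45% if 1.5-fold the growth effect; inactive = the rest, general growth blockers included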;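 note: wells of about 50 µL received 100 nL stock; 0% = vehicle wells and 100% = reference inhibitor wells; whole bacteria with a GFP reporter of the hypoxia response; strong numbers were not always called active; many hits fall short of the cut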
# Autofluor counter – flagged as autofluorescent in microsphere protease counterscreen; compound autofluorescence counterscreen, microsphere flow cytometry; hits give high values; fluorescence intensity (no concentration beside the values); actives 3.1% (n = 360,000); AID 624483;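 active = at least 3 SD above the mean of all compounds, about 16000 in these data; inconclusive = too few beads counted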;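 note: 100 nL of 1 mM stock went into each well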
# PrP 5UTR inh – inhibition of PrP 5' UTR reporter expression; cell-based PrP 5' UTR mRNA reporter, plate reader; inhibition, % (no concentration beside the values); actives 0.35% (n = 340,000); AID 488862, 2010;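 active = every replicate at 50% or more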;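 note: 0 = median of the neutral control wells; tested in H4 reporter cells; numbers are from one replicate; inactives centre near -14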
# Sa ugtP lethal – growth inhibition of ugtP-null S. aureus, primary screen, RN4220 ugtP deletion, OD600. 16 h; some inactives read as strong as hits. growth inhibition, % (concentration not given with the values). actives 0.54% (n = 330,000);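 active = z-score under -3 and OD600 up to 0.15 on both plates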;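 note: plate controls were untreated wells for no effect and antibiotic for full effect; wells of about 80 µL received 100 nL stock; the first replicate is given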
# BJeLR lethal – MLPCN primary cell-based screen for lethality selective to Ras in HRASV12 cells; BJeLR (HRASV12) viability, CellTiter-Glo ATP luminescence, 48 h; reference of the scale not given here; inhibition, % (no concentration beside the values); actives 0.17% (n = 300,000); AID 1554, 2009;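 active = replicate mean above 50%; inconclusive = above 50% but judged a plate artefact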;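 note: 50 nL library stock added to about 25 µL; numbers are from one replicate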
# Sa RN4220 lethal – growth inhibition of S. aureus RN4220, primary screen, OD600; actives 0.33% (n = 330,000); 16 h; AID 1259311, 2017; inhibition, % (no concentration beside the values);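 active = z-score of -3 or lower and OD600 up to 0.18 on both plates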;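 note: plate controls were untreated cells for no effect and reference antibiotic for full effect; stock transfer was 100 nL into about 80 µL; one replicate is shown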
# Mtb hypoxia inh growth – further read-out of Mtb hypoxia inh, marked with its call; growth inhibition, %; measured here: M. tuberculosis growth (absorbance);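 0% = vehicle and 100% = reference antibiotic; read after six days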
# Numbers without * were called inactive; ? = inconclusive; . = no result given; & = joins results of further samples.
SMILES,Mtb hypoxia inh,Mtb hypoxia inh growth,Autofluor counter,PrP 5UTR inh,Sa ugtP lethal,BJeLR lethal,Sa RN4220 lethal
O=C1NC(CCc2ccccc2)C(=O)N1Cc1ccc(Br)cc1 (stereo not given),11,2,3294,-12,6,2,0.6
Cc1ccc(C)c(CSc2nnc(-c3cccnc3)n2N)c1,3,8,15877,-17,6,7,2.7
Cc1ccc2c(c1)N(CC(=O)NCCCN1CCCCC1)C(=O)c1cccnc1O2,.,.,5702,-36,7,-6,4.5
Nc1ccc(-c2cc(-c3ccc(N)cc3)nc(-c3ccccc3)n2)cc1,-3,9,9944,-10,-16,3,3.0
CC1CN(CCc2ccccc2)c2nc3c(c(=O)[nH]c(=O)n3C)n2C1 (stereo not given),.,.,2524,-18,-3,-2,-4.1
Nc1nonc1C(=O)N/N=C/c1ccc(-c2cccc([N+](=O)[O-])c2)o1,.,.,2714,-31,.,-8,.
COc1ccc(Cl)cc1NC(=O)CN(C)C(C)C(=O)NC(=O)NC1CCCCC1 (stereo not given),0,2,5419,-14,-1,-6,1.9
O=C(NC1CCCC1)c1ccc(S(=O)(=O)N2CCOCC2)cc1,5,-5,?,-8,12,-3,5.0
Cc1oc(-c2cccc(Cl)c2)nc1CN1CCC(C(=O)NCc2ccco2)CC1,-6,6,10821,-5,-9,2,-4.2
COc1ccc(OC)c(Nc2nc(-c3ccc(O)c(O)c3)cs2)c1,.,.,2355,-40,.,9,.
CN(C(=O)c1ccc2c(c1)OCO2)C1CCCCC1,6,8,5903,-25,4,5,3.1
CC(=O)Nc1ccc(S(=O)(=O)N(Cc2ccccc2)C(C)C)cc1,9,3,5153,-35,-10,2,12
COc1cccc(CNC2CCCc3ccccc32)c1OC (stereo not given),5,2,?,-33,-2,0,-0.1
O=[N+]([O-])c1cc(S(=O)(=O)N2CCCC2)ccc1NN=Cc1ccccn1,13,-1,.,.,3,.,4.3
COCCCNC(=O)COc1cc(C)c(Cl)c(C)c1,.,.,.,-3,-1,-4,-2.6
CC(C)CCN(C(=O)C1CSC2(C)CCC(=O)N12)c1c(N)n(Cc2ccccc2)c(=O)[nH]c1=O (stereo not given),3,-7,?,-3,4,5,-1.9
O=C(Nc1ccc(N2CCOCC2)c(S(=O)(=O)Nc2ccc(Cl)cc2)c1)c1ccc(=O)[nH]n1,3,0,3020,-5,15,.,30
O=C(Nc1ccc(S(=O)(=O)NC2=NCCCCC2)cc1)c1ccc([N+](=O)[O-])s1,17,9,5772,-40,9,1,6.9
CCOC(CNC(=O)C(=O)Nc1cc2c3c(c1)CC(=O)N3CCC2)OCC,-8,2,5586,-10,3,6,1.2
O=C(CS(=O)(=O)c1cn(CC(=O)N2CCCC2)c2ccccc12)Nc1ccccc1F,1,-3,5245,-13,4,2,0.7
Cc1cc2cc3c(cc2nc1SCC(=O)OC(C)C)OCO3,4,6,2722,-15,7,3,7.5
COc1ccccc1C(=O)Nc1ccc2c(c1)CN(C(=O)CSC)CC2,1,1,3418,-10,11,10,4.8
COc1ccccc1CNC(=O)CN(c1ccc(C)cc1)S(=O)(=O)c1c(C)nn(C)c1C,-10,12,10504,-28,-2,-2,-1.1
Cc1ccc(S(=O)(=O)NNC(=O)c2snnc2C)cc1,.,.,3943,-13,3,12,2.8
CCOc1cc(C)c(C(C)C)cc1S(=O)(=O)N1CCN(C)CC1,.,.,2124,5,7,-4,6.8
CCn1c(=O)n(CC(=O)Nc2cccc(OC)c2)c(=O)c2ccccc21,.,.,5720,-10,0,-1,0.4
CCc1nnc(NC(=O)CSc2nc3c(c(=O)n2C)SC(C)C3)s1 (stereo not given),-2,15,5450,-39,5,-7,9.8
COc1ccc(CC2S/C(=N/N=C/c3ccc(O)cc3)NC2=O)cc1 (stereo not given),.,.,2053,-26,.,-9,.
O=C(CCC1CCN(Cc2ccccc2O)CC1)NC1CC1,4,3,3955,-16,1,-2,2.7
COc1ccc(NC2c3ccccc3C(=O)N2c2ccccn2)cc1 (stereo not given),9,4,3667,-9,2,3,4.2
CCOC1OC(C(=O)NCc2ccccc2)=CC(c2ccc(Br)cc2)C1CCCO (stereo not given),6&0,2&1,.,.,7&-16,.,4.1&4.4
O=C(O)c1ccc(N2C(=O)c3cccc4cccc(c34)C2=O)cc1,3,2,.,-26,6,10,3.1
COc1ccc(N2CCN(CC(O)COc3ccccc3[N+](=O)[O-])CC2)cc1 (stereo not given),-4,-3,2376,-5,1,-2,5.8
CN(C)c1ccc(/C=N/NC(=O)c2nonc2N)cc1[N+](=O)[O-],.,.,4508,-14,.,-1,.
CCCCn1c(C)cc(C)c(S(=O)(=O)c2ccccc2C)c1=O,.,.,2531,0,9,-11,12
Cc1ccc(C)c(C(=O)COC(=O)Cn2c(C)csc2=O)c1,8,1,4528,-7,8,17,1.6
CC(Oc1ccc2c3c(c(=O)oc2c1)CCCC3)C(=O)NCC(O)c1ccccc1 (stereo not given),-9,-3,5659,3,0,-3,4.5
CC1CCCCN1CCCNC(=O)CN1C(=O)c2cccnc2Oc2ccc(Cl)cc21 (stereo not given),16,7,6195,-29,5,2,-1.0
Cc1[nH][nH]c(=O)c1C=NN1CCOCC1,-4,-9,.,.,0,.,0.5
O=C(COc1ccccc1Cl)NC(=O)NC1CCCCC1,10,3,?,-57,4,2,-1.9
O=C(NCCCNCCCNC(=O)c1ccccn1)c1ccccn1,.,.,4270,-7,-2,-1,0.3
c1ccc(C[n+]2cccc3c4ccccc4ccc32)cc1,7,18,3001,-7,-4,9,-3.3
O=C(CC1S/C(=N/N=Cc2cccs2)NC1=O)Nc1ccccc1F (stereo not given),2,-1,.,.,8,.,2.4
COc1cc2c(cc1OC)CN(CC(=O)Nc1cccc(C)c1)CC2,-83,-12,7328,-3,3,-7,9.8
Oc1ccc2ccccc2c1C=Nn1cnnc1,16,-5,.,.,-11,.,4.8
Cc1ccc(NC(=O)CCc2ccc(C)o2)cc1,-5,22,3619,-8,-3,-4,0.5
O=C1NC(=O)N(Cc2ccc(F)cc2)C(=O)/C1=C/c1cccs1,-1,-2,3616,-16,3,2,6.1
Cc1ccc(NN=C(Cc2nc3ccccc3[nH]2)c2ccccc2)cc1,-4,-3,.,.,-9,.,-6.0
COc1ccc(Cl)cc1NC(=O)C/C(C)=N/NC(=O)c1ccc(O)cc1,.,.,3484,-10,.,-4,.
CC(=O)Nc1ccc(NC(=O)CCCSc2nc3ccccc3[nH]2)cc1,14,-1,5102,-28,4,-1,3.4
COc1cc(S(=O)(=O)N2CCOCC2)ccc1NC(=O)CN1c2cccc3cccc(c23)S1(=O)=O,10,7,10245,-22,11,-2,2.9
Cn1c(Nc2ccc(Cl)cc2)cc(=O)n(C)c1=O,-4,3,3181,-10,5,-4,4.9
COc1ccc(-n2c(=O)c(CCC(=O)NCCc3ccccc3F)nc3ccccc32)cc1,13,6,6280,.,-1,.,6.9
CCN(CC)S(=O)(=O)c1ccc(C)c(NC(=O)CSc2nnnn2C)c1,-5,2,.,-8,5,.,7.0
O=C(NCC1OCCc2ccccc21)c1ccco1 (stereo not given),.,.,2019,-9,-1,-1,-1.6
CCCCn1c(N)c(N(CCOC)C(=O)COC(=O)c2ccccc2NCCO)c(=O)[nH]c1=O,4,-2,3024,-17,12,.,4.4
O=C(Nc1cccc(O)c1)C(=O)Nc1ccccn1,7,4,9591,-27,1,8,0.6
COc1cc2c(cc1OC)C(c1ccccc1OC(C)C)CC(=O)N2 (stereo not given),0,2,3760,-28,9,-1,3.6
CCOC(=O)c1c(C)n(C(C)C)c2ccc(OC(=O)c3ccc(N4C(=O)CCC4=O)cc3)cc12,0,6,9126,-1,-11,15,11
NS(=O)(=O)c1ccc(CCNC(=O)c2cccc(OC(F)F)c2)cc1,0,-7,3957,.,8,-7,3.7
# The list continues:
SMILES,Mtb hypoxia inh,Mtb hypoxia inh growth,Autofluor counter,PrP 5UTR inh,Sa ugtP lethal,BJeLR lethal,Sa RN4220 lethal
O=C(O)CC(NC(=O)COc1ccccc1)c1cccc([N+](=O)[O-])c1 (stereo not given),4,15,4481,-15,0,-1,2.1
COC(=O)c1ccc(NC(=S)NC2CCCCC2)cc1,13,9,10480,-39,-15,6,-0.5
O=C1C=C(c2ccccc2)C[C@@H](c2ccc3c(c2)OCO3)C1,4,11,4256,-14,-3,.,-12
Cn1c(=O)c2c(ncn2CC(=O)N2CCc3ccccc3C2)n(C)c1=O,2,1,3319,-14,2,-13,3.6
Cc1ccccc1CCN1CCCC(CN(C)CC(C)(C)C)C1 (stereo not given),2,1,4858,-15,2,-6,0.8
CN(C)S(=O)(=O)c1ccc(N2CCCC2)c(C(=O)N2CCC(C(N)=O)CC2)c1,6,7,?,-18,2,-9,2.8
COC(=O)CSc1nnc(-c2ccccn2)n1N,-2,-5,3771,-29,5,-1,4.4
Cc1cc(Cl)nc(-c2ccccc2O)n1,3,-7,4534,7,1,-15,5.7
FC(F)(F)c1cc(CCN2C(=S)NC[C@@H]2CC2CCCCC2)cc(C(F)(F)F)c1,.,.,3897,5,.,13,.
O=C1CCCc2sc3c(c2N1)CCCCC3,7,5,5168,-18,6,-5,1.1
O=C(CCN1C(=O)C2CCCCC2C1=O)Nc1nc2c(F)cc(F)cc2s1 (stereo not given),-3,1,5960,-33,1,.,3.2
c1ccc(CSc2cc3ccccc3[nH]2)cc1,14,5,5755,-70,0,-6,-0.9
CCCn1nc2cc(C(=O)NCCc3cccs3)ccc2c1OCC,7,10,3784,-27,0,3,6.8
CC(Cn1ncc(N2CCOCC2)c(Cl)c1=O)=NO,16,1,.,.,11,.,2.8
O=C(NC1CCCN(Cc2ccccc2F)C1)C1CCC1 (stereo not given),16,6,4250,-26,13,6,4.3
Cc1ccc(S(=O)(=O)NC2c3cccc4cccc(c34)C2Sc2nncn2C)cc1 (stereo not given),16,6,2120,-14,10,-2,11
Cc1ccc2nc(SCC(=O)NNC(=O)c3ccccc3)[nH]c2c1,14,10,2583,-9,10,-7,5.1
Cc1cc2nnc(SCC(=O)OC(C)C)n2c2ccccc12,-6,-4,4422,-19,3,6,2.3
COC(=O)C1=NNC(C(=O)c2ccco2)C1c1ccccc1 (stereo not given),0,4,4478,-13,8,1,2.3
CCNc1c(NC(C)=O)c(=O)oc2ccccc12,-2,1,2611,-23,-2,2,5.8

# Shown as tab-separated lines: part of the list above.
SMILES	Mtb hypoxia inh	Mtb hypoxia inh growth	Autofluor counter	PrP 5UTR inh	Sa ugtP lethal	BJeLR lethal	Sa RN4220 lethal
O=C1NC(CCc2ccccc2)C(=O)N1Cc1ccc(Br)cc1 (stereo not given)	11	2	3294	-12	6	2	0.6
Cc1ccc(C)c(CSc2nnc(-c3cccnc3)n2N)c1	3	8	15877	-17	6	7	2.7
Cc1ccc2c(c1)N(CC(=O)NCCCN1CCCCC1)C(=O)c1cccnc1O2	.	.	5702	-36	7	-6	4.5
Nc1ccc(-c2cc(-c3ccc(N)cc3)nc(-c3ccccc3)n2)cc1	-3	9	9944	-10	-16	3	3.0
CC1CN(CCc2ccccc2)c2nc3c(c(=O)[nH]c(=O)n3C)n2C1 (stereo not given)	.	.	2524	-18	-3	-2	-4.1
Nc1nonc1C(=O)N/N=C/c1ccc(-c2cccc([N+](=O)[O-])c2)o1	.	.	2714	-31	.	-8	.
COc1ccc(Cl)cc1NC(=O)CN(C)C(C)C(=O)NC(=O)NC1CCCCC1 (stereo not given)	0	2	5419	-14	-1	-6	1.9
O=C(NC1CCCC1)c1ccc(S(=O)(=O)N2CCOCC2)cc1	5	-5	?	-8	12	-3	5.0
Cc1oc(-c2cccc(Cl)c2)nc1CN1CCC(C(=O)NCc2ccco2)CC1	-6	6	10821	-5	-9	2	-4.2
COc1ccc(OC)c(Nc2nc(-c3ccc(O)c(O)c3)cs2)c1	.	.	2355	-40	.	9	.
CN(C(=O)c1ccc2c(c1)OCO2)C1CCCCC1	6	8	5903	-25	4	5	3.1
CC(=O)Nc1ccc(S(=O)(=O)N(Cc2ccccc2)C(C)C)cc1	9	3	5153	-35	-10	2	12
COc1cccc(CNC2CCCc3ccccc32)c1OC (stereo not given)	5	2	?	-33	-2	0	-0.1
O=[N+]([O-])c1cc(S(=O)(=O)N2CCCC2)ccc1NN=Cc1ccccn1	13	-1	.	.	3	.	4.3
COCCCNC(=O)COc1cc(C)c(Cl)c(C)c1	.	.	.	-3	-1	-4	-2.6
